rRNA inh HTS: inhibits bacterial ribosomal RNA function over humanized ribosomes; GFP signal change (wild-type ribosome), % (concentration not given with the values); E. coli WT GFP vs humanized-ribosome RFP mutants, fluorescence, 24 h; active compounds read low; DMSO median 0, no signal -100; actives 1.6% (n = 350,000);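 active = significant combined selectivity score with lowered wild-type GFP, culture density cut under 30%, mutant RFP and density less affected; inactive = any of these conditions unmet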; note: one replicate is shown; some compounds called inactive have numbers as strong as hits
ALR H2O2 inh: human ALR oxidase inhibition via reduced H2O2. inhibition, % (concentration not given with the values). actives 3.8% (n = 290,000). P55789. purified ALR, DTT oxidation, H2O2 HRP-luminol luminescence;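 active = mean and each replicate at 75% or more; inconclusive = only one of the two met; inactive = neither met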;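 note: stock transfer was 7.5 nL into about 7.5 µL; 0% = neutral wells and 100% = wells with inactivated enzyme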
LANA-H2A inh: blocks KSHV LANA binding to histone H2A/H2B; Q9QR71; cell-free LANA-H2A/H2B peptide, fluorescence polarization; inhibition, % (concentration not given with the values); actives 0.6% (n = 320,000); in the data active = inhibition mostly above about 10%, no sharp cut-off; inactive = mostly below about 6.7%;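 note: stock transfer was 7.5 nL into about 10 µL; 0% = median of vehicle wells and 100% = median of positive control wells; one replicate is shown; the record names a cut of 25% in any replicate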
Target sequence (Q9QR71 whole entry, looked up): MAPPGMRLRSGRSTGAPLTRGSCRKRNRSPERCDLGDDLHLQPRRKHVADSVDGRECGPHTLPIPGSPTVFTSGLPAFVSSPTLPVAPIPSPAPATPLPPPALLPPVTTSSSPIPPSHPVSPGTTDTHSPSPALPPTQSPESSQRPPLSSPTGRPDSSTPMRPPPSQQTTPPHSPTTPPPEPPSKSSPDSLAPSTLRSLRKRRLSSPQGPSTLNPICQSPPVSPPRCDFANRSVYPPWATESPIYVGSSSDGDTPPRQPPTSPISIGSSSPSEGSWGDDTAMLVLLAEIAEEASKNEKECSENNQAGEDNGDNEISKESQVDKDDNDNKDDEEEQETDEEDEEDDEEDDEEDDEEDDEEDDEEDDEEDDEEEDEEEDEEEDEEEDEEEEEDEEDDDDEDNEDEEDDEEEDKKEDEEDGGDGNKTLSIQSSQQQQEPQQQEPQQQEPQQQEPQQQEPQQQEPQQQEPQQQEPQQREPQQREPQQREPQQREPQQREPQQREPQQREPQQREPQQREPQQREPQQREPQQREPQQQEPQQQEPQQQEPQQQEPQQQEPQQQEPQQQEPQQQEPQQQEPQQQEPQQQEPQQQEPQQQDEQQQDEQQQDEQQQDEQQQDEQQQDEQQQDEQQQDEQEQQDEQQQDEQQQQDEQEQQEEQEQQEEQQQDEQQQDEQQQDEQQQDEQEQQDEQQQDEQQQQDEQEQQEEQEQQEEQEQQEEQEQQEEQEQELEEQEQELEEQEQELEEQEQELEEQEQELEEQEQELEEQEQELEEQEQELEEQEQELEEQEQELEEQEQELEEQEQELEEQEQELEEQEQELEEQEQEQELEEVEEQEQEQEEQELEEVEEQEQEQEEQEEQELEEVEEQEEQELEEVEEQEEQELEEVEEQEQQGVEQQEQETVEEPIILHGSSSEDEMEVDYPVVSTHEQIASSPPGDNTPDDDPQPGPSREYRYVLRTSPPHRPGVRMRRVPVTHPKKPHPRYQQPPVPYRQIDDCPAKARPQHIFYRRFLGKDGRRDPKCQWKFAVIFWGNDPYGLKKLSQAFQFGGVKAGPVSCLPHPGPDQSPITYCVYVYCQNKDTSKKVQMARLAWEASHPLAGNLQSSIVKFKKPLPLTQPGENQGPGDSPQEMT
T cruzi repl: blocks replication of Trypanosoma cruzi. AID 1885. actives 1.4% (n = 300,000). inhibition, % (test concentration not listed). T. cruzi beta-gal in NIH3T3, luminescence, 90 h;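 active = mean inhibition across valid replicates above about 55%, limit read from the data; inconclusive = mean below that limit but half or more replicates reach it; inactive = mean below it, under half of replicates reach it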;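 note: signal also drops with host cell toxicity which is not excluded here; 0% = plate median of DMSO wells and 100% = zero luminescence signal; higher percent means less beta-gal luminescence so fewer parasites; stock transfer was 50 nL into about 50 µL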
A1 inh: inhibitors of the anti-apoptotic protein A1, read as caspase activation. MEF A1-2A-BIM cells, Caspase-Glo 3/7 luminescence, 3 h; percent of clofoctol response, vehicle zero. caspase activation, % (test concentration not listed). actives 0.066% (n = 330,000);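 active = over half of replicate activation scores above 10%, or exactly half above 10 with the replicate mean above 10; inconclusive = replicate mean below 10 yet half the replicates above 10; inactive = over half of replicates below 10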;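 note: wells of about 30 µL received 50 nL stock; many hits fall short of the cut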
Calb FLC: C. albicans growth modulation with fluconazole | actives 0.57% (n = 300,000) | growth inhibition, % (test concentration not listed) | C. albicans CaCi-2 (fluconazole-resistant clinical isolate) + fluconazole, Alamar Blue growth, 48 h;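 active = most replicates above 75%; inconclusive = exactly half above 75%; inactive = most below 75%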;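 note: all wells also contain fluconazole at 8 µg/ml as a sub-toxic cotreatment; 0% = median of DMSO wells and 100% = median of geldanamycin control wells; wells of about 8 µL received 7.5 nL stock; the first replicate is given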
Beta2AR agonist: agonists of human beta-2 adrenergic receptor inducing internalization. response, % (concentration not given with the values). P07550. actives 0.43% (n = 340,000). AID 504454. Am2.2-beta2AR cells, FAP receptor internalization, flow cytometry; reference of the scale not given here;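 active = response above a set limit, near 3 SD of response in nonfluorescent compounds, cut at about 42% in these data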;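 note: stock transfer was 100 nL into about 11 µL; a reference agonist was the positive control; negative values mostly stem from fluorescent compounds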
Beta apoptosis: blocks beta cell apoptosis. INS-1E cytokine-induced death, ATP luminescence, 48 h; percent of positive-control rescue, neutral wells zero. protection from apoptosis, % (test concentration not listed). actives 0.8% (n = 300,000). AID 435005;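 active = all replicates at 75% or more, or half of them and the mean; inconclusive = half reach 75% but not the mean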;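 note: 0% = cytokine-treated negative control wells and 100% = positive control rescue; higher means more ATP so stronger rescue from cytokine killing; wells of about 40 µL received 100 nL stock; the first replicate is given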
rRNA inh HTS OD600: also measured in rRNA inh HTS; calls as there; OD600 change, %; measured here: OD600 growth;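 optical density of the mix in the first replicate; 0 = DMSO median and -100 = no signal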
rRNA inh HTS RFP: further read-out of rRNA inh HTS, marked with its call; RFP signal change, %; measured here: RFP humanized mutant strains;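 first replicate; 0 = DMSO median and -100 = no signal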
Starred values were filed as active, the others as inactive. These rows are one share of the data, so the mix of outcomes need not match the whole.

CCOc1ccc(NC(=S)Nc2ccc(F)cc2)cc1 was read as rRNA inh HTS 3, ALR H2O2 inh -10, LANA-H2A inh 6.0, T cruzi repl -2, A1 inh 0.9, Calb FLC 4, Beta2AR agonist -2, Beta apoptosis -1, rRNA inh HTS OD600 7 and rRNA inh HTS RFP -1.4.
Screening Cc1ccc(S(=O)(=O)N/N=C/c2cc(Br)c(C)o2)cc1 returned ALR H2O2 inh 39, LANA-H2A inh -3.8, T cruzi repl -11, A1 inh 0.2, Calb FLC -3, Beta2AR agonist -3 and Beta apoptosis -15.
Screening CN(Cc1ccccc1)C(=O)CN1C(=O)c2ccccc2S1(=O)=O returned rRNA inh HTS 4, ALR H2O2 inh 0, LANA-H2A inh 1.2, T cruzi repl -3, A1 inh -0.5, Calb FLC 16, Beta2AR agonist -2, Beta apoptosis 0, rRNA inh HTS OD600 12 and rRNA inh HTS RFP -1.6.
Cc1ccc(S(=O)(=O)N2c3ccccc3NC(=O)CC2C)cc1 (stereo not drawn) was read as ALR H2O2 inh -7, LANA-H2A inh 4.2, T cruzi repl -5, A1 inh 0.5, Calb FLC -6 and Beta2AR agonist 7.
Screening CCNC1=C(Cl)C(=O)c2ccccc2C1=O returned ALR H2O2 inh -39, LANA-H2A inh -3.3, T cruzi repl -14, A1 inh 0.6, Calb FLC -15, Beta2AR agonist -4 and Beta apoptosis 55.
Screening COc1cccc(-c2cc3onc(-c4ccccc4)c3c(=O)n2C)c1 returned rRNA inh HTS -7, ALR H2O2 inh -14, LANA-H2A inh 3.7, A1 inh -3.8, Beta2AR agonist 1, Beta apoptosis 6, rRNA inh HTS OD600 7 and rRNA inh HTS RFP 4.4.
For COc1ccc(S(=O)(=O)N2CCCOC2CNC(=O)C(=O)NCCCN2CCOCC2)cc1C (stereo not drawn) the results were rRNA inh HTS 18, ALR H2O2 inh 0, LANA-H2A inh -1.3, T cruzi repl -12, A1 inh 0.1, Calb FLC -2, Beta2AR agonist 6, Beta apoptosis 12, rRNA inh HTS OD600 17 and rRNA inh HTS RFP 6.7.
`Cn1cccc1C(=O)NC(=O)COC(=O)c1cc(S(=O)(=O)N2CCCCC2)ccc1Cl` gave rRNA inh HTS 12, ALR H2O2 inh -11, LANA-H2A inh -2.1, T cruzi repl 10, A1 inh 0.2, Calb FLC 5, Beta2AR agonist 4, Beta apoptosis 7, rRNA inh HTS OD600 14 and rRNA inh HTS RFP 1.5.
`O=C(Nc1sc2c(c1C(=O)O)CCCC2)c1ccc(Cl)cc1` gave rRNA inh HTS -46, LANA-H2A inh 0.0, T cruzi repl -4, A1 inh -5.4, Calb FLC 35, Beta2AR agonist 10, Beta apoptosis 1, rRNA inh HTS OD600 -61 and rRNA inh HTS RFP -9.6.
`O=S(=O)(c1ccc(NC(=S)NCc2cccnc2)cc1)N1CCCCC1` gave rRNA inh HTS -23, ALR H2O2 inh -1, LANA-H2A inh -7.3, T cruzi repl -31, A1 inh -0.3, Calb FLC -4, Beta2AR agonist -1, Beta apoptosis 126*, rRNA inh HTS OD600 -20 and rRNA inh HTS RFP -0.5.
Cc1ccc(C)c(CN2CCC(n3nccc3NC(=O)C3CCCC3)CC2)c1 was read as rRNA inh HTS 1, ALR H2O2 inh 3, LANA-H2A inh -0.8, T cruzi repl 5, A1 inh inconclusive, Calb FLC -11, Beta2AR agonist 3, Beta apoptosis -3, rRNA inh HTS OD600 1 and rRNA inh HTS RFP 2.9.
Screening Cc1ccc(C(=O)NCc2nc3ccccc3[nH]2)o1 returned rRNA inh HTS 8, ALR H2O2 inh 3, LANA-H2A inh -2.2, T cruzi repl -8, A1 inh 1.5, Calb FLC -1, Beta2AR agonist -4, Beta apoptosis -9, rRNA inh HTS OD600 1 and rRNA inh HTS RFP 2.1.
O=C(NC(Nc1ncc(S(=O)(=O)c2ccc([N+](=O)[O-])cc2)s1)(C(F)(F)F)C(F)(F)F)c1ccc(Cl)cc1 was read as ALR H2O2 inh -16, LANA-H2A inh -1.7, T cruzi repl 27, A1 inh 0.9, Calb FLC 10, Beta2AR agonist 32 and Beta apoptosis 113*.
`COc1cc2nc(N(CCCN(C)C)C(=O)c3ccc(S(=O)(=O)N(C)C4CCCCC4)cc3)sc2cc1OC` gave rRNA inh HTS -7, ALR H2O2 inh -3, LANA-H2A inh 3.0, T cruzi repl 50, A1 inh 0.1, Calb FLC 3, Beta2AR agonist 20, rRNA inh HTS OD600 1 and rRNA inh HTS RFP -0.2.
For O=C(O)CCCC(=O)Nc1c(F)c(F)c(F)c(F)c1F the results were ALR H2O2 inh 1, LANA-H2A inh -0.4, T cruzi repl 6, A1 inh -0.9, Calb FLC 4, Beta2AR agonist 2 and Beta apoptosis 0.
For O=C1c2ccccc2C(=O)N1CC#CCN1CCN(C(c2ccccc2)c2ccccc2)CC1 the results were LANA-H2A inh -0.1, T cruzi repl 10, A1 inh 0.4, Calb FLC 9, Beta2AR agonist 8 and Beta apoptosis -2.
`COC(=O)c1cccc(NC(=O)CSc2nnc(COc3ccc(C#N)cc3)n2-c2ccccc2)c1` gave ALR H2O2 inh -21, LANA-H2A inh -1.4, T cruzi repl 17, A1 inh -0.6, Calb FLC -4, Beta2AR agonist 0 and Beta apoptosis 0.
Screening Cn1nnnc1SCc1cn2cccnc2n1 returned ALR H2O2 inh -4, LANA-H2A inh -3.2, T cruzi repl -10, A1 inh 0.5, Calb FLC -1, Beta2AR agonist 1 and Beta apoptosis -2.
Screening N#CCC(=O)NCCCOC(=O)Nc1ccc(Cl)c(Cl)c1 returned ALR H2O2 inh -1, LANA-H2A inh 4.2, T cruzi repl -11, A1 inh -0.1, Calb FLC -25, Beta2AR agonist 0 and Beta apoptosis 4.
Screening CCNC(=O)c1ccccc1-c1nc(-c2ccccc2Cl)no1 returned ALR H2O2 inh -13, LANA-H2A inh 7.6, T cruzi repl 7, A1 inh 0.2, Calb FLC -10, Beta2AR agonist 1 and Beta apoptosis 0.
Cc1ccc(C(=O)N/C(=C\c2ccc(-c3ccccc3[N+](=O)[O-])o2)C(=O)NCCCN2CCOCC2)cc1 was read as rRNA inh HTS -4, ALR H2O2 inh 0, LANA-H2A inh -3.8, T cruzi repl 4, A1 inh -1.2, Calb FLC 13, Beta2AR agonist 2, Beta apoptosis inconclusive, rRNA inh HTS OD600 -13 and rRNA inh HTS RFP 5.9.
Cc1ccccc1-n1c(C)nnc1SCC(=O)N1CCc2ccccc2C1 was read as ALR H2O2 inh -6, LANA-H2A inh 4.0, T cruzi repl -2, A1 inh 0.3, Calb FLC 0, Beta2AR agonist -6 and Beta apoptosis -4.
Screening COc1ccc(-n2c(SCC(=O)O)nnc2-c2ccc(NC(=O)c3ccccc3)cc2)cc1 returned rRNA inh HTS 13, ALR H2O2 inh 1, LANA-H2A inh -1.1, T cruzi repl 5, A1 inh 1.5, Calb FLC -4, Beta2AR agonist -4, Beta apoptosis -4, rRNA inh HTS OD600 3 and rRNA inh HTS RFP 0.5.
CCN1CCN(c2cc(C)c3cc(NC(=S)N4CCN(c5ccccc5F)CC4)ccc3n2)CC1 was read as rRNA inh HTS 9, ALR H2O2 inh 8, LANA-H2A inh -4.6, T cruzi repl 27, A1 inh -0.9, Calb FLC 19, Beta2AR agonist 1, Beta apoptosis -1, rRNA inh HTS OD600 6 and rRNA inh HTS RFP 5.9.
Screening O=C(O)C(Cc1ccccc1)Nc1ccc([N+](=O)[O-])cc1[N+](=O)[O-] (stereo not drawn) returned rRNA inh HTS -11, ALR H2O2 inh -11, LANA-H2A inh -1.7, T cruzi repl -10, A1 inh 0.7, Calb FLC 56, Beta2AR agonist 4, Beta apoptosis -3, rRNA inh HTS OD600 -9 and rRNA inh HTS RFP -1.8.
For CCc1ccc(NC(=O)CSc2nnc(-c3cccs3)n2CC)cc1 the results were ALR H2O2 inh -3, LANA-H2A inh -0.8, T cruzi repl 0, A1 inh 1.7, Calb FLC 5, Beta2AR agonist -6 and Beta apoptosis 1.
Screening Cc1ccc(C(=O)NCC(=O)Nc2ccccc2C(F)(F)F)cc1 returned rRNA inh HTS 4, ALR H2O2 inh -6, LANA-H2A inh 1.8, T cruzi repl -4, A1 inh -0.1, Calb FLC -2, Beta2AR agonist -6, Beta apoptosis -7, rRNA inh HTS OD600 10 and rRNA inh HTS RFP 5.3.
CC1CCCN(C(=O)CSCC(=O)N=c2sc3ccccc3n2C)C1 (stereo not drawn) was read as ALR H2O2 inh -7, LANA-H2A inh -5.4, T cruzi repl 0, A1 inh 0.0, Calb FLC -2, Beta2AR agonist -10 and Beta apoptosis -6.
Cc1c(Cl)cnc(NC(=O)COC(=O)Cc2coc3ccc4ccccc4c23)c1Cl was read as rRNA inh HTS -1, ALR H2O2 inh -20, LANA-H2A inh 0.9, T cruzi repl -3, A1 inh -0.5, Calb FLC 1, Beta2AR agonist 3, Beta apoptosis -10, rRNA inh HTS OD600 -7 and rRNA inh HTS RFP -1.5.
`CCCCn1c(N)c(N(CCOC)C(=O)c2ccc(Cl)c(S(=O)(=O)N3CCCCC3)c2)c(=O)[nH]c1=O` gave rRNA inh HTS 2, ALR H2O2 inh 2, LANA-H2A inh 1.5, T cruzi repl -2, A1 inh 1.1, Calb FLC -8, Beta2AR agonist -2, Beta apoptosis 4, rRNA inh HTS OD600 8 and rRNA inh HTS RFP -2.7.
O=C(CSc1ccc(-c2nc3ccccc3[nH]2)cn1)Nc1ccc(S(=O)(=O)NC2CC2)cc1 was read as rRNA inh HTS -21, ALR H2O2 inh -3, LANA-H2A inh -4.7, T cruzi repl 7, A1 inh -0.4, Calb FLC -2, Beta2AR agonist 8, Beta apoptosis 7, rRNA inh HTS OD600 -26 and rRNA inh HTS RFP -2.7.
Screening CCOc1ccc(NC(=O)CCS(=O)(=O)c2ccc3c(c2)CCCN3C(C)=O)cc1 returned ALR H2O2 inh -11, LANA-H2A inh -3.0, T cruzi repl -10, A1 inh 1.7, Calb FLC 2, Beta2AR agonist -1 and Beta apoptosis -1.

Sorted by number of heavy atoms (lowest first): three of the compounds above.
Screening CCNC(=O)c1ccccc1-c1nc(-c2ccccc2Cl)no1 returned ALR H2O2 inh -13, LANA-H2A inh 7.6, T cruzi repl 7, A1 inh 0.2, Calb FLC -10, Beta2AR agonist 1 and Beta apoptosis 0.
CCN1CCN(c2cc(C)c3cc(NC(=S)N4CCN(c5ccccc5F)CC4)ccc3n2)CC1 was read as rRNA inh HTS 9, ALR H2O2 inh 8, LANA-H2A inh -4.6, T cruzi repl 27, A1 inh -0.9, Calb FLC 19, Beta2AR agonist 1, Beta apoptosis -1, rRNA inh HTS OD600 6 and rRNA inh HTS RFP 5.9.
O=C(NC(Nc1ncc(S(=O)(=O)c2ccc([N+](=O)[O-])cc2)s1)(C(F)(F)F)C(F)(F)F)c1ccc(Cl)cc1 was read as ALR H2O2 inh -16, LANA-H2A inh -1.7, T cruzi repl 27, A1 inh 0.9, Calb FLC 10, Beta2AR agonist 32 and Beta apoptosis 113*.

From PubChem
